TRPML1 inh: qHTS for Inhibitors of the Human Mucolipin Transient Receptor Potential 1 (TRPML1); 390,000 compounds, 0.02% hits; TRPML1-inducible cells, Ca2+ dye fluorescence, FDSS; hits give low values; inhibition of EC80 agonist-evoked calcium signal; activity change, negative = inhibition, % (test concentration not listed); in the data active means activity change below about -50%; inconclusive means about -30% to -50%; inactive means above about -30%;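 note: stimulus is agonist 54-4 at its EC80 concentration; % is set by controls: 0 for no effect and ±100 for the full control effect; compound concentration not given in the record; the text of the record puts the active cut at -80%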
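TRPML1-DL cells, Tet-induced overnight (~16 h, 37 °C) at 1,500 cells/well, were loaded with Ca8 no-wash dye plus quencher for 45-90 min at room temperature. Compounds were pinned during FDSS kinetic reading; agonist 54-4 at EC80 (4 uM final) then added.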
Six1-Eya2 inh: qHTS Assay for Inhibitors of the Six1/Eya2 Interaction | AlphaScreen GST-Six1/His-Eya2 binding, biochemical; hits give low values; control for the full effect not named in the record | activity change, % (no concentration beside the values) | 360,000 compounds, 0.56% hits | AID 651725, 2012; in the data active = activity change below about -65%; inconclusive = about -30% to -65%; inactive = above about -30%; note: % is set by controls: 0 for no effect and ±100 for the full control effect
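Homogeneous AlphaScreen proximity assay pairing GST-Six1 with His-tagged Eya2 (added as 5X mix: 250 nM and 500 nM) in 50 mM Tris pH 8.0, 300 mM NaCl, 1 mM TCEP. Glutathione donor and nickel acceptor beads; 1 h, 37 °C, dark.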
TRPML1 ag: qHTS for Agonists of the Human Mucolipin Transient Receptor Potential 1 (TRPML1). activation, % (no concentration beside the values). Mucolipin-1 (Homo sapiens), Q9GZU1. TRPML1-expressing cells, Ca2+ dye fluorescence, FDSS; host cell line not named in the record; reference of the full effect not given here. 410,000 compounds, 0.12% hits; in the data active = activation above about 50%; inconclusive = about 30% to 50%; inactive = below about 30%; note: 0% is about no effect; the text of the record puts the active cut at 80%
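Agonist activity was taken from a 110 s kinetic Ca2+ dye read on the FDSS after pinning compounds onto TRPML1-DL cells. The cells were seeded at 1,500/well with Tet inducer, incubated about 16 h, then dye-loaded at room temperature.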
TRPV1 PAM: HTS Assay for Compounds that Act as Potentiators of the Vanilloid Receptor 1 | potentiation, % at 8.33 µM | TRPV1-expressing cells, Fluo-8 calcium influx, capsaicin EC20 potentiation; host cell line not named in the record; control for the full effect not named in the record | AID 540277, 2011 | Transient receptor potential cation channel subfamily V member 1 (Homo sapiens), Q8NER1 | 320,000 compounds, 0.02% hits; active means potentiation above 80%; inconclusive means 30% to 80%; inactive means below 30%; note: 0% is about no effect
Target sequence (Q8NER1 whole entry, looked up): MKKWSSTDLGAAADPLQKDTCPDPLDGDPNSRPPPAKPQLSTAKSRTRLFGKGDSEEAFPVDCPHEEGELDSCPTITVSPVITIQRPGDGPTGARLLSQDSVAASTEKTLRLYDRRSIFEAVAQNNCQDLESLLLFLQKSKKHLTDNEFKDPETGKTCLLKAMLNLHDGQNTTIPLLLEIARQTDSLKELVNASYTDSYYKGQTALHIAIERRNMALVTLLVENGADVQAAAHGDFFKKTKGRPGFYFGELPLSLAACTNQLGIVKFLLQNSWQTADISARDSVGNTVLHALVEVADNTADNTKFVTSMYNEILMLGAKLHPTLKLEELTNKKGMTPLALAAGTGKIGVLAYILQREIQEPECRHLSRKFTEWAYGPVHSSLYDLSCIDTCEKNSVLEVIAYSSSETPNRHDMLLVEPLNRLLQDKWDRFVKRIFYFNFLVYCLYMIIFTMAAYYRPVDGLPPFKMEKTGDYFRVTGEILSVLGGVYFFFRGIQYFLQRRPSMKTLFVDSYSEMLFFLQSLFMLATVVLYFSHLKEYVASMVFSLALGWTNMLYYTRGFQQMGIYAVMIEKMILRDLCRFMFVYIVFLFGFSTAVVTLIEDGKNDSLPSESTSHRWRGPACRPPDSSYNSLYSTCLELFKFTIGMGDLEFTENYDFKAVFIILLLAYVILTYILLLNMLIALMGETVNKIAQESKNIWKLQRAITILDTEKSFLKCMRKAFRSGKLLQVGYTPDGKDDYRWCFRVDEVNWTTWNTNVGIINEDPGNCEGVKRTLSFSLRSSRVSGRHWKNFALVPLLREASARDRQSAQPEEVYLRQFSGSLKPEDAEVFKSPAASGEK
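Fluo-8 calcium influx in TRPV1-expressing cells, kinetic read (ex 480/em 520 nm). Compound added and read 3 min for agonist activity, followed by capsaicin at EC20 final and 2 min further read for enhancement.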
D2 potentiator: Beta-Arrestin HTS for Positive Allosteric Modulators of the Human D2 Dopamine Receptor: Potentiators; D(2) dopamine receptor (Homo sapiens), P14416; DiscoveRx D2 beta-arrestin cells, luminescence, 90 min; 100% = 57 uM dopamine signal; potentiation, % (test concentration not listed); 360,000 compounds, 0.23% hits; AID 624464, 2012; active = potentiation of 50% or more; inconclusive = 30% to 50%; inactive = 30% or less;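 note: compound concentration not given in the record; tested on top of an EC20 dose of dopamine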
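PathHunter beta-arrestin assay in DiscoveRx D2 cells. Compounds were added with an EC20 of dopamine (50 nM final) for 90 min at 37 deg C. Luminescence was read 1 h after detection reagent, with 57 uM dopamine as the EC100 control.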
CtBP-E1A blk: qHTS Assay for Inhibitors of the CtBP/E1A Interaction. AlphaScreen GST-E1A/His-CtBP binding, 1536-well; hits give low values; control for the full effect not named in the record. activity change, % (no concentration beside the values). 340,000 compounds, 0.49% hits. AID 651724, 2012; in the data active means activity change below about -65%; inconclusive means about -30% to -65%; inactive means above about -30%; note: % is set by controls: 0 for no effect and ±100 for the full control effect
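Protein mix (5X: 125 nM each GST-E1A, His-CtBP) was incubated with pinned compound 2 h at 37 deg C in dark, in 50 mM Tris pH 8.0 buffer with 300 mM NaCl. Glutathione donor and nickel acceptor beads followed; AlphaScreen signal read after 1 h.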
* marks the source's active call; other numbers are inactive results; ? = inconclusive; / = no result given; & = joins results of further samples.

SMILES | TRPML1 inh | Six1-Eya2 inh | TRPML1 ag | TRPV1 PAM | D2 potentiator | CtBP-E1A blk
CCCOc1ccccc1C1NC(=O)NC(C)=C1C(=O)OCCOC (centres undefined) | 8 | 4 | -0.9 | 6 | -8 | 9
COc1ccc(CNCC(O)(c2ccc(Cl)cc2)c2ccc(Cl)cc2)cc1OC | 17 | -7 | 1.2 | -19 | -35 | -13
COc1ccc(Cc2nnc(SCc3ccc([N+](=O)[O-])cc3)o2)cc1 | -17 | -9 | -0.2 | -1 | 1 | -4
C#CCSc1nc(=O)c2cccnc2n1-c1ccc(C)cc1 | -12 | -2 | 2.1 | -7 | 3 | -15
COC(=O)c1ccc(CN2CCCC(C(=O)Nc3cccc(-n4cnnn4)c3)C2)cc1 (centres undefined) | 7 | -6 | 0.6 | -7 | -33 | -21
CCOC(=O)c1c(C2CCN(C(=O)OCC)CC2)nc2ccccn12 | -7 | 2 | 0.1 | / | 4 | -2
CC(C)Sc1n[nH]c(=O)n1-c1ccccc1 | 31 | 7 | 0.6 | -5 | 8 | /
COc1cccc(C(=O)NCC[N+](C)(C)C)c1 | / | 6 | -0.1 | / | / | 3
O=C(CN1C(=O)S/C(=C\c2ccccc2F)C1=O)NC1C=CS(=O)(=O)C1 (centres undefined) | 52 | 0 | -0.5 | 13 | -8 | -17
CN(C(=O)c1ccc(Cl)c(S(=O)(=O)N2CCOCC2)c1)c1ccccc1C(=O)O | 18 | 3 | 1.7 | 5 | -23 | 5

Ordered by the number under TRPML1 inh (lowest first): some entries from above.
mol	TRPML1 inh	Six1-Eya2 inh	D2 potentiator	CtBP-E1A blk
COc1ccc(CNCC(O)(c2ccc(Cl)cc2)c2ccc(Cl)cc2)cc1OC	17	-7	-35	-13
CC(C)Sc1n[nH]c(=O)n1-c1ccccc1	31	7	8	/
O=C(CN1C(=O)S/C(=C\c2ccccc2F)C1=O)NC1C=CS(=O)(=O)C1 (centres undefined)	52	0	-8	-17

Other records follow:
SMILES | TRPML1 inh | Six1-Eya2 inh | TRPML1 ag | TRPV1 PAM | D2 potentiator | CtBP-E1A blk
COc1cccc(C(=O)Nc2ccc(NC(C)=O)cn2)c1 | 2 | 0 | -0.5 | 20 | -5 | -1
COC(=O)Cc1cc(=O)[nH]c(/N=C(\N)Nc2ccccc2C)n1 | -13 | 26 | -0.4 | 9 | 8 | 49
O=C(O)/C=C/C(=O)O | / | 6 | / | / | -2 | 9
Cc1noc(C)c1COc1ccccc1C(=O)NNC(=O)C(C)Oc1ccccc1F (centres undefined) | -12 | 8 | -0.2 | -13 | 3 | 1
CC(C)(C)[C@@H]1CCC(=O)N(CC[C@H](Sc2ccccc2)c2ccccc2)CC1 | 51 | 14 | 2.0&1.2 | -21 | -9 | /
C(=C\c1ccccc1)/C=N/N1CCN(Cc2ccccc2)CC1 | -17 | ? | 3.0 | -5 | -12 | ?
O=C(COC(=O)c1ccc2ccccc2n1)NCc1ccccc1 | 3 | 2 | 0.5 | -4 | -6 | -5
CS(=O)(=O)c1ccc2nc(NC(=O)c3cc([N+](=O)[O-])cc([N+](=O)[O-])c3)sc2c1 | / | 1 | / | -5 | 99* | /
Nc1c2c(nn1-c1ccc(F)cc1)CSC2 | 2 | 4 | 0.1 | 26 | -6 | 0
CCOC(=O)C1(Cc2ccccc2)CCCN(Cc2ccc(OCCO)cc2)C1 (centres undefined) | 6 | -1 | 0.4 | -5 | -7 | 6
CCCCNS(=O)(=O)NC(=O)C1=C(N2CCCC2)COC1=O | -16 | 1 | -0.2 | 7 | -6 | 9
COc1cccc(NC(=O)CSc2nc3ccccc3c(=O)n2CCCC(=O)NCC2CCCO2)c1 (centres undefined) | 20 | 0 | -0.5 | 11 | 0 | 0
CCCCN(C)CCC(=O)Nc1ccc(OC)cc1OC | 37 | 9 | 2.9 | -32 | -36 | -2
CCCCn1nnnc1C(c1cc2ccccc2o1)N1CCN(C(=O)OCC)CC1 (centres undefined) | / | 5 | 0.4 | / | / | -1
CCN(CC)C(=O)COc1ccc(/C(C)=N/NC(=O)c2ccccc2Br)cc1 | 11 | 1 | 0.2 | 0 | -7 | -4
Cn1c(SCC(=O)Nc2ccccc2F)nnc1-c1cc2ccccc2o1 | 6 | 2 | -1.2 | 22 | 2 | 1
CCNc1ccc(S(=O)(=O)N(C)C)cc1NCC(=O)Nc1ccccc1Br | -1 | -5 | 2.0 | -9 | -15 | -7
Cc1ccnc(-n2sc3ccccc3c2=O)n1 | 20 | 2 | 1.2 | -15 | -23 | 2
O=C(NCc1ccc(C(F)(F)F)cc1)C12CN(Cc3ccccc3)CC1C(c1cccc([N+](=O)[O-])c1)=NO2 (centres undefined) | 8 | -16 | 0.4 | -5 | -4 | -14
CC(C)CN1CCN(Cc2ccc(Oc3ncccn3)cc2)CC1CCO (centres undefined) | 23 | -2 | 1.0 | -24 | -17 | -9
COc1ccccc1Cc1c(-c2ccco2)nc2c(C)cc(Br)cn12 | / | ? | 0.9 | / | -22 | -15
COc1ccc(C2(CNC(=O)/C=C\c3ccco3)CCCC2)cc1OC | 3 | -1 | -0.8 | -26 | 2 | 0
COC(=O)c1ccc(N2C(c3ccsc3)=Cc3cc4c(cc3C2CC(=O)c2ccco2)OCO4)cc1 (centres undefined) | / | -15 | -0.5 | / | / | -5
COC(=O)c1ccc(NC(=O)C(=O)N2CCN(C(=S)Nc3ccccc3OC)CC2)cc1 | -8 | 2 | 0.3 | -4 | 5 | -11
COC(=O)C1=C(C)NC(=O)NC1c1ccsc1 (centres undefined) | -4 | -2 | -0.4 | -13 | -13 | -4
Cc1ccc(-n2c(-c3ccccc3)nnc2-c2cccs2)cc1 | 0 | -1 | -0.3 | -9 | 5 | 9
N/C(=N\c1nc2ccccc2o1)NC(=O)c1cccc(Cl)c1 | -3 | -3 | 0.7 | -17 | -2 | -4
Cc1ccccc1NC(=S)N1CCC(C(=O)c2ccc(F)cc2)CC1 | -2 | -3 | 0.2 | -7 | -18 | -8
COc1ccc(CCC(=O)NCCc2cn3c(C)csc3n2)cc1 | 1 | -4 | -0.1 | -16 | -1 | -13
Cc1occc1-c1nnc(SCC(=O)N2CCCCC2C)o1 (centres undefined) | -3 | 2 | -0.3 | -18 | 1 | 2
Cc1cc(OCC(=O)N[C@@H](CSCc2ccccc2)C(=O)O)c2c(C)c(C)c(=O)oc2c1 | / | -26 | / | -29 | -2 | -11
CC1(C)C2CCC1(CS(=O)(=O)NCc1ccc(S(N)(=O)=O)cc1)C(=O)C2 (centres undefined) | 3 | 4 | -0.3 | -11 | 0 | -5
Cc1ccccc1N1C(=O)CC(Sc2nnc(-c3ccccc3)o2)C1=O (centres undefined) | 4 | -1 | -0.7 | 4 | -32 | -2
CCOC(=O)N1CCN(C(=O)c2ccc(N(C)S(C)(=O)=O)cc2)CC1 | 22 | -2 | 0.0 | -10 | -3 | 2
COC(=O)[C@]1(Cc2ccccc2)N[C@H](CN(C)C(=O)c2ccccc2)[C@@H]2C(=O)N(Cc3ccccc3)C(=O)[C@@H]21 | -6 | -2 | -0.7 | / | / | -2
CCn1c(COc2ccc3c(c2)OCO3)nnc1SCC(=O)c1ccccc1 | 0 | -7 | 2.0 | 1 | 1 | -6
O=C(CSc1nnc2n1CCCN2C(=S)Nc1ccc(Cl)cc1)c1ccccc1 | 4 | -4 | 0.5 | -8 | 19 | 1
CSCCC(NC(=O)c1cccc(C)c1)C(=O)OCC(=O)NC(=O)c1cccn1C (centres undefined) | -13 | -16 | -0.3 | 0 | -13 | -22
CN1C(=O)C(C)(C)c2cc(S(=O)(=O)NCC3CCC(C(=O)NCc4ccc(F)cc4)CC3)ccc21 (centres undefined) | 1 | 2 | -0.6 | 4 | 2 | 11
COC(=O)c1ccccc1NC(=O)CCCn1nc([N+](=O)[O-])c(Br)c1C | -9 | -1 | 0.7 | -2 | -9 | /
CCOc1ccc(NC(=O)CNC(=O)COc2ccccc2)cc1 | 6 | 0 | 0.9 | 17 | -15 | 0
Cc1ccc(C(=O)CSc2nnc(-c3ccco3)n2Cc2ccccc2)cc1 | 3 | -8 | 0.6 | -2 | -6 | -17
COC(=O)C1CSC(C(=O)OC)N1C(=O)Nc1c(C)cccc1C (centres undefined) | -11 | 3 | 0.5 | 4 | -4 | 10
Cc1cc([N+](=O)[O-])nn1CC(=O)NCCCn1ccnc1 | -6 | 7 | -0.4 | 7 | -2 | 2
Cc1ccc(OC(F)F)c(NC(=O)Nc2ccc3c(c2)OCO3)c1 | 9 | -12 | -0.3 | -5 | -47 | -4
CCCCOC(=O)c1ccc(NC(=S)NC(=O)c2ccco2)cc1 | -14 | 0 | 0.2 | -8 | -21 | 6
Cc1csc(SCC(=O)NC2CCCCC2)n1 | -11 | 7 | -0.2 | 1 | -20 | 4
O=C(O)CC(C(=O)O)c1ccc(OCCCCOc2ccc(C(CC(=O)O)C(=O)O)cc2)cc1 (centres undefined) | 19 | -9 | 0.2 | -11 | 1 | 2
O=C(Nc1ccc(Cl)cn1)c1ccc(-c2cc(Cl)ccc2Cl)o1 | -11 | 1 | -0.3 | 4 | -3 | 10
COc1ccc(C(=O)Cn2c(NCCCO)nc3ccccc32)cc1 | 19 | 11 | -0.4 | / | -30 | 1

The list goes on.
SMILES | TRPML1 inh | Six1-Eya2 inh | TRPML1 ag | TRPV1 PAM | D2 potentiator | CtBP-E1A blk
CCc1ccc(N2CC(C(=O)Nc3cc(C)ccc3F)CC2=O)cc1 (centres undefined) | -8 | -1 | 1.8 | 1 | -6 | -4
COc1ccccc1NS(=O)(=O)c1cccc(C(=O)NCC(c2cccs2)N(C)C)c1 (centres undefined) | -4 | -1 | 1.0 | / | -2 | -5
CSc1nc(C)cc(SC(C(C)=O)C(=O)Nc2ccccc2)n1 (centres undefined) | -6 | 0 | 0.2 | 13 | -36 | -10
O=C(COC(=O)c1ccccc1-n1cnnn1)c1ccc(Br)cc1 | 19 | 10 | 1.4 | 6 | -16 | 6
Cc1c(NC(=O)CN2C(=O)c3ccc([N+](=O)[O-])cc3C2=O)c(=O)n(-c2ccccc2)n1C | 15 | 1 | 0.0 | 0 | -2 | -11

As entered above:
D2 potentiator with `COc1ccc(CNCC(O)(c2ccc(Cl)cc2)c2ccc(Cl)cc2)cc1OC` → -35
CtBP-E1A blk with `COc1ccc(Cc2nnc(SCc3ccc([N+](=O)[O-])cc3)o2)cc1` → -4
CtBP-E1A blk with `COc1cccc(C(=O)Nc2ccc(NC(C)=O)cn2)c1` → -1
CtBP-E1A blk with `COC(=O)C1=C(C)NC(=O)NC1c1ccsc1` (centres undefined) → -4
CtBP-E1A blk with `CN(C(=O)c1ccc(Cl)c(S(=O)(=O)N2CCOCC2)c1)c1ccccc1C(=O)O` → 5
TRPML1 inh with `CC(C)Sc1n[nH]c(=O)n1-c1ccccc1` → 31
Six1-Eya2 inh with `COc1cccc(NC(=O)CSc2nc3ccccc3c(=O)n2CCCC(=O)NCC2CCCO2)c1` (centres undefined) → 0
